# Compound activity from PubChem.
# NPR1 antag: Natriuretic polypeptide receptor (hNpr1) antagonism - Primary qHTS; AID 1347048, 2019; Potency, µM (titrated, usually from 46.3 µM), for inactives: at the top dose activity change, negative = inhibition, actives largely listed as inhibitors; 1.6% of 76,000 active; Atrial natriuretic peptide receptor 1 (Homo sapiens), P16066; HEK293 hNpr1 GloSensor cGMP, ANP-stimulated luminescence; active = well fitted inhibition curve with a large enough effect; inconclusive = small, poorly fitted or top-dose-only effect; inactive = no such curve, though single readings can be large or run the other way;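 also: nearly all actives have a fitted effect of over 60% in size; nearly all hits also lower the signal before the agonist is added; a reference antagonist and vehicle were the controls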
# Target sequence (P16066 whole entry, looked up): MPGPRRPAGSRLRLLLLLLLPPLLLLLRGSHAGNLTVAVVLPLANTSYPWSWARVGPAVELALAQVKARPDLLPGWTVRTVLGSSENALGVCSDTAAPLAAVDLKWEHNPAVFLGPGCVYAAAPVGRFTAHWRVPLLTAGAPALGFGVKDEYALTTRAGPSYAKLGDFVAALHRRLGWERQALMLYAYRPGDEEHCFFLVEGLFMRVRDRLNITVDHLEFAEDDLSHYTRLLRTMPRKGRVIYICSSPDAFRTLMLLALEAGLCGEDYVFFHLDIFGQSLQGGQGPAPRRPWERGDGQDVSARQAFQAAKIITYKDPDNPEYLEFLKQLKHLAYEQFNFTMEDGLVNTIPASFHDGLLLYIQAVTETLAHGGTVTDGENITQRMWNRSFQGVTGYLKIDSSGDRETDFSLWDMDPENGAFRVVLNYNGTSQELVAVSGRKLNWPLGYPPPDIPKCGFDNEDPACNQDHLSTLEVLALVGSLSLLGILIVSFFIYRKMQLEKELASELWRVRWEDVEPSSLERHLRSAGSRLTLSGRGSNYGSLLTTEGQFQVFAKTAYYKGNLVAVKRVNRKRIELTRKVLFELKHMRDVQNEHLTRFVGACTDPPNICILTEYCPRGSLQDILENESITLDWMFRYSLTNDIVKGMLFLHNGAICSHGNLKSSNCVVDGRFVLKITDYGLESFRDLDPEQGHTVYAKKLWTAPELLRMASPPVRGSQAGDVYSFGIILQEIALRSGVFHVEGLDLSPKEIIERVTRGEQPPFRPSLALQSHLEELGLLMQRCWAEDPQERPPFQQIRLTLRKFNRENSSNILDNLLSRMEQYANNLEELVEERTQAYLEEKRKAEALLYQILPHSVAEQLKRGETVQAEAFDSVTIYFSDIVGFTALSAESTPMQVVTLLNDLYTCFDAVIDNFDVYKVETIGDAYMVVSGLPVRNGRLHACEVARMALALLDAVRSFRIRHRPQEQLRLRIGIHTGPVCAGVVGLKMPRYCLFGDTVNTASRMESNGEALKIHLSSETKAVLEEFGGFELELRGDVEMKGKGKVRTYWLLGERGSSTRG
#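 Compound pre-incubated 30 min at room temperature on GloSensor-loaded HEK293 cells stably carrying hNpr1 and the pGS-40F cGMP biosensor. Stimulation uses hNppA at 0.1 nM final; luminescence is taken at baseline and 20 min post-agonist.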
# * = called active by the depositor; u = inconclusive; & = joins results of further samples; [ ] = another dose, or the depositor's remark. % is scaled to controls: 0 for no effect and ±100 for the full control effect; potency is read from the fitted curve at half-maximal effect. The list is partial; rates above refer to the full screens.
# Preview (seven entries):
SMILES,NPR1 antag
CN1c2cc(C(=O)N3CCN(c4ccccc4Cl)CC3)ccc2C(=O)N2CCCCC21 (configuration not stated),0%
CCn1cc(C(=O)N2CCc3cc(S(=O)(=O)NCC4CCCO4)ccc3C2)cn1 (configuration not stated),3%
CN(C)CC(NC1CCC2(CCNCC2)CC1)c1ccccc1 (configuration not stated),1%
COCCOCc1nc(C2CCN(C(=O)NCC(C)C)CC2)no1,3%
COc1ccc(CN2CCC3(CC2)NC(=O)c2ccccc2O3)cc1,17%[70.6 µM]
CC(=O)N1CCC2(C1)OC(=O)Nc1cnccc12 (configuration not stated),25%[70.6 µM]
Cc1ccc(S(=O)(=O)N2C[C@@H](F)C[C@H]2C(=O)N2CCOCC2)cc1F,3%

# Main list, previewed entries included:
SMILES,NPR1 antag
CN1c2cc(C(=O)N3CCN(c4ccccc4Cl)CC3)ccc2C(=O)N2CCCCC21 (configuration not stated),0%
CCn1cc(C(=O)N2CCc3cc(S(=O)(=O)NCC4CCCO4)ccc3C2)cn1 (configuration not stated),3%
CN(C)CC(NC1CCC2(CCNCC2)CC1)c1ccccc1 (configuration not stated),1%
COCCOCc1nc(C2CCN(C(=O)NCC(C)C)CC2)no1,3%
COc1ccc(CN2CCC3(CC2)NC(=O)c2ccccc2O3)cc1,17%[70.6 µM]
CC(=O)N1CCC2(C1)OC(=O)Nc1cnccc12 (configuration not stated),25%[70.6 µM]
Cc1ccc(S(=O)(=O)N2C[C@@H](F)C[C@H]2C(=O)N2CCOCC2)cc1F,3%
CCc1nc(-c2c3n(c(=O)n(CC(=O)c4ccc(Cl)cc4)c2=O)CCCC3)no1,5%
O=C(c1ccc(F)c(Cl)c1)N1C[C@@H](CO)[C@H](c2ccncc2)C1,7%
CCCN(Cc1ccco1)C(=O)C1CCC(=O)N(CC2CCCCC2)C1 (configuration not stated),-10%
O=C(Nc1ccc([C@@H](O)[C@H]2COCC(=O)N2Cc2ccncc2)cc1)C1CCC1,-9%[70.6 µM]
COc1cccc([S+](=O)([O-])N2CCC3(CC2)CC(=O)Nc2ccccc2O3)c1,-3%

# 5 structures out of the list, sorted by molar mass, ascending:
SMILES,NPR1 antag
COc1ccc(CN2CCC3(CC2)NC(=O)c2ccccc2O3)cc1,17%[70.6 µM]
COc1cccc([S+](=O)([O-])N2CCC3(CC2)CC(=O)Nc2ccccc2O3)c1,-3%
CCc1nc(-c2c3n(c(=O)n(CC(=O)c4ccc(Cl)cc4)c2=O)CCCC3)no1,5%
CCn1cc(C(=O)N2CCc3cc(S(=O)(=O)NCC4CCCO4)ccc3C2)cn1 (configuration not stated),3%
CN1c2cc(C(=O)N3CCN(c4ccccc4Cl)CC3)ccc2C(=O)N2CCCCC21 (configuration not stated),0%

# Further compounds follow:
SMILES,NPR1 antag
COC[C@@H]1CN(C(=O)Cc2ccc(F)cc2)C[C@H]1c1ccncc1,11%
CN(C)C[C@@H]1CN(S(C)(=O)=O)C[C@H]1NC(=O)c1ccc2ncccc2c1,1%
COc1ccc2[nH]c3c(c2c1)CCNC31CCN(C(=O)c2ccc(OC)c(F)c2)CC1,-9%
COCCNC(=O)CCc1c(C)nn(-c2ccccc2)c1Oc1ccccc1F,-10%
O=C(NC1CCCN(c2cc(-c3ccccc3)[nH]n2)C1)c1cccc(Br)c1 (configuration not stated),-21%
CC(=O)N1CCC(C(=O)NC2CCc3n[nH]c(=O)n3CC2)CC1 (configuration not stated),1%
CCOc1ccc(NC(=O)Cn2c(N3CCOCC3)nc(CC)cc2=O)cc1,-1%
CN1C[C@@H](NC(=O)NC2CCCCC2)C[C@H]1c1nc(-c2cccnc2)no1,0%[70.6 µM]
COC[C@@H]1CN(C(=O)c2ccc3ccccc3n2)C[C@H]1c1nc(C)no1,5%
Cc1cc(C)cc(C(=O)N2CCC(n3cc(-c4nc(C)no4)nn3)CC2)c1,5%
O=C1CC2(CCN(CC3CCCCC3)CC2)Oc2ccccc2N1c1ccccc1,0%
O=C(NCc1cccc(F)c1)c1nc2c(o1)CCN(Cc1cccc(Cl)c1)CC2,u
Cc1noc2c(NCCCn3ccnc3)cc(-c3cccs3)nc12,-2%[70.6 µM]
O=C1NCCCCCN(C(=O)C2CC2)[C@H]2CCCC[C@@H]12,-13%
O=C(NCc1ccccc1)N1Cc2[nH]cnc2C[C@H]1c1nc(-c2ccc3c(c2)OCO3)no1,-1%
Cc1ccc(CN2CCC3(CC2)COc2ccccc2C(=O)N3)cc1,-4%
Cc1ccc(-n2c(C3CCN(C(=O)c4cc(C)ccc4C)CC3)n[nH]c2=O)cc1,1%
C[C@]1(CO)[C@H]2Cc3sc(NC(=O)C4CCC4)nc3[C@@H](CC(=O)NCCN3CCOCC3)[C@]2(C)CC[C@H]1O,0%
CC1=C[C@@H](CNCc2ccco2)[C@H](C(C)C)C[C@H]1Cc1nnc(-c2ccccc2F)o1,-21%[70.6 µM]
Cc1ccc(S(=O)(=O)N(C)CC2CCOCC2)cc1F,-10%
Cn1cc2c3c(cccc31)CN(C(=O)Cc1ccccc1F)CC2,-3%
O=C(Nc1ccccc1)N1Cc2[nH]cnc2C[C@H]1c1nc(-c2ccc3c(c2)OCO3)no1,-11%[70.6 µM]
CC(C)OCCCNC(=O)CC1=C2CCCCC2NC1=O (configuration not stated),3%
COc1cccc(CNC(=O)[C@@H]2C[C@@H](O)CN2C2CCN(C(=O)c3cc(C)nn3C)CC2)c1,-8%
Cn1c(Cn2ccnc2)nnc1C1CC(NC(=O)c2ccsc2)C1 (configuration not stated),4%
COC[C@@H]1CN(Cc2ccc(F)c(OC)c2)C[C@H]1C(=O)NC1CC1,-1%
Cc1cnc(C(=O)N2CCCCCCNC(=O)[C@@H]3CCCC[C@@H]32)cn1,2%
COc1ccc(C[C@H](NC(=O)C2=C[C@@H](NC(=O)CSCC(=O)O)[C@@H](O)[C@H](O)C2)C(N)=O)cc1,3%
Cc1ccc(-c2nnc(C3CN(C(=O)c4ccc(Cl)s4)CC34CCOCC4)o2)cc1 (configuration not stated),-16%
COc1cccc(C(=O)N2CCOC[C@H](Oc3cccnc3)C2)c1,0%[70.6 µM]
CN1C[C@H](O)C[C@H]1c1nnc2n1CCN(C(=O)C1CCC1)CC2,2%
O=C(Cc1cccc(F)c1)N1CCC(Cc2nncn2Cc2ccccc2)C1 (configuration not stated),-9%
Cc1cc(=O)n(CC(=O)Nc2ccc(C)c(C)c2)c(N2CCC(C)CC2)n1,-30%
Cc1ccc(NS(=O)(=O)c2ccccc2)c(=O)n1CC(=O)NC(C)c1ccccc1 (configuration not stated),1%
Cc1cccc2nnc(N3CCN(C(=O)c4ccc(F)c(F)c4)CC3)n12,6%
C[S+](=O)([O-])N1CCC(Cn2ccc3c(N4CCOCC4)nc(-c4ccccc4F)cc32)CC1,-7%
COCCNC(=O)c1ccc(OC2CCN(C(C)CCSC)CC2)c(Cl)c1 (configuration not stated),-1%
Cc1ccc(-c2cc(C(=O)NCCN3CCN(C)CC3)n(C)c2)cc1,-13%
O=C(NCCc1c[nH]c2ccccc12)c1cnc2c(c1)N([S+](=O)([O-])c1cccnc1)CCC2,-9%
O[C@@H]1C[C@@H](c2nc(Cc3ccccc3)no2)N(CCCc2ccccc2)C1,2%[70.6 µM]
C[C@@H]1C(=O)O[C@H]2[C@H]1CC[C@@]1(C)Cc3sc(NC(=O)CN(C)C)nc3[C@@H](C)[C@H]21,16µM*
COc1ccccc1NC(=O)Nc1cccc(-c2ccc(N3CCOCC3)nn2)c1,u
O=C1[C@@H]2C[C@@H](CN2C(=O)C2CC2)Oc2ccccc2N1Cc1cccnc1,1%[70.6 µM]
COc1ccc(F)cc1Nc1cnc2ccc(N(C)C)nn12,1%[70.6 µM]
COc1ccc(CNCc2ccc(C)s2)cc1OCC(O)CN1CCCCC1 (configuration not stated),-4%
Nc1cc(N2CCN(Cc3ncc[nH]3)CC(C(=O)O)C2)ncn1 (configuration not stated),7%
CCn1c(Cn2ccnc2C)nnc1C1CCN(C(=O)CCN)CC1,-1%
COc1cccc(C(=O)N2C(C(=O)N3CCOCC3)COC23CCN(C(=O)CC(C)(C)C)CC3)c1 (configuration not stated),5%
N#Cc1ccc(C(=O)NC2CCCN(c3cc(-c4ccc(F)cc4)[nH]n3)C2)cc1 (configuration not stated),-8%
Clc1ccc(C2Cn3nnc(-c4noc(COc5ccccc5)n4)c3CO2)cc1 (configuration not stated),0%
COc1ccc(C(=O)NC(C(=O)N2CCCC2)C2CCN(C(=O)c3ccc(OC)cc3)CC2)cc1 (configuration not stated),-2%
O=C(C1CN(c2cccc(Cl)c2)C(=O)N1)N1CCOCC1 (configuration not stated),6%&1%[70.6 µM]
CNC(=O)Cn1nc(C2CCN(C(=O)c3ccccc3F)CC2)c2c1CCOC2,4%
O=C(CN1CC2CC(C1)[C@H]1CCCC(=O)N1C2)N1CCN(c2cccc(Cl)c2)CC1 (some centres not stated),3%
CC(C)(O)C1CCCN(C(=O)c2cc(COc3ccccc3F)[nH]n2)C1 (configuration not stated),0%
CC(=O)NC[C@H]1OC[C@@H](NC2CCC(F)(F)CC2)[C@@H]1O,7%[70.6 µM]
CN1C[C@@H](NC(=O)c2ccc(C(C)(C)C)cc2)C[C@H]1c1nc(-c2ccc3c(c2)OCO3)no1,u
Cc1cccc2nnc(N3CCN(C(=O)CCc4ccccc4)CC3)n12,-6%
Cc1nn(-c2ccc(C(F)(F)F)cc2)c(C)c1[C@@H]1C=C[C@@H](NC(=O)NC(C)C)C1,u
COc1cccc(Nc2ncc3c(n2)C(C)(C(=O)N2CCN(c4ccccn4)CC2)CC3)c1 (configuration not stated),0%
# Following part
SMILES,NPR1 antag
CCCCN1CCc2[nH]cnc2C1c1cc(C)ccc1F (configuration not stated),1%
CN(Cc1ccc(N2CCCCC2)cc1)C(=O)CCC[C@H]1NC[C@@H]2C[C@H]1CN(Cc1ccccc1)C2,-2%
Cn1cc(CN2CCCC(C(=O)N3CCOCC3)C2)c(-c2ccc(C3CCCCC3)cc2)n1 (configuration not stated),3%
CNC(=O)[C@@H]1CN(C(=O)c2nccc3ccccc23)C[C@H]1CO,5%
O=C1N(CCCCOc2ccccc2)c2ccccc2NC12CCNCC2,-17%
COc1ccccc1CC(=O)N1CCC[C@H]1c1nc(-c2ccc(F)cc2)no1,4%
CN1C(=O)CC(C(=O)O)C12CCN(Cc1ncccn1)CC2 (configuration not stated),1%
O=C(NCCc1ccccc1)c1cc2n(n1)CC(c1ccc(Cl)cc1)OC2 (configuration not stated),u
CCNC(=O)Nc1ccc2c(c1)CN(Cc1cccc(OC)c1)C(=O)C(CC)O2 (configuration not stated),-17%
CC1CCN(Cc2nnnn2CCCC(=O)N2CCN3CCCC3C2)CC1 (configuration not stated),0%
CC(=O)N1CCCN(c2ncc(S(C)(=O)=O)c(C3CCCNC3)n2)CC1 (configuration not stated),2%
O=C(c1cc(F)ccc1Cl)N1CCN(c2cc(-c3ccccc3)[nH]n2)CC1,u

# Two of the compounds above, with tabs.
Compound	NPR1 antag
CCCCN1CCc2[nH]cnc2C1c1cc(C)ccc1F (configuration not stated)	1%
CN(Cc1ccc(N2CCCCC2)cc1)C(=O)CCC[C@H]1NC[C@@H]2C[C@H]1CN(Cc1ccccc1)C2	-2%

# Continuation.
SMILES,NPR1 antag
CSCC(=O)N[C@H]1CCN2C(=O)c3ccc(Cl)cc3NC(=O)[C@@H]2C1,-2%[70.6 µM]
COc1cncc(CN2C[C@H]3[C@H](C2)[S+](=O)([O-])C(C)(C)C(=O)N3CC2CCOCC2)c1,-2%
CN1C(=O)COC[C@@H]1[C@H](O)c1ccc(NC(=O)C2CCCCC2)cc1,-1%[70.6 µM]
CN(C)C[C@@H]1CN(Cc2ccccc2)C[C@H]1NC(=O)c1ccncc1,1%
O=C(Nc1ccc(F)c(Cl)c1)N1CCCC(Cn2c(C3CC3)nc3cccnc32)C1 (configuration not stated),-20%
Cc1nn2c(c1-c1ccccc1OCc1ccccc1)N(CC1CC1)CCC2,7.1µM*
Cn1c(Cn2cccn2)nnc1C1CCCN(C(=O)Cc2cccnc2)C1 (configuration not stated),1%
COc1ccc(CNC(=O)CCC2CCCN(C(=O)CN3CCOC3=O)C2)c(OC)c1 (configuration not stated),2%
CCOc1ccc(CC(=O)N2CCC(Oc3nccnc3N(C)C)C2)cc1 (configuration not stated),0%
NS(=O)(=O)c1ccc(CNC(=O)Cn2nc3c(cc2=O)CCCC3)cc1,2%
Cc1nc(-c2ccc(C(C)N3CCCCC3)cc2)c(Cl)c(=O)[nH]1 (configuration not stated),1%
O=C(Cn1nc2c(cc1=O)CCCC2)NCc1ccccn1,0%
COc1cccc(CN2CCC3(CC2)c2[nH]c4ccccc4c2CCN3C)c1,0%
O=C1CCN(C(=O)CCc2ccccc2)CCCC(CO)CCN1 (configuration not stated),-1%
COc1ccc(O)c(C2CC(=O)Nc3c2c(C)nn3-c2ccc(C)cc2)c1 (configuration not stated),u
Cc1onc(-c2cnn(C)c2NCc2ccccc2)c1C(=O)N1CCN(CCO)CC1,4%[70.6 µM]
COC1CCN(CC2CCCCCN2C(=O)c2ccccc2F)CC1 (configuration not stated),0%
Cc1noc(-c2cccn3c(CNC(=O)c4ccccc4)nnc23)n1,-17%
Cn1ccnc1CN1CCC2(CC1)OC(=O)N(Cc1cccnc1)C2(C)c1ccccc1 (configuration not stated),1%[70.6 µM]
O=C(c1ccsc1)N1CCC2(CCCN(CC3CCC3)C2=O)C1 (configuration not stated),0%
CCc1nc2c(c(-c3ccc(Cl)cc3)n1)CCN(Cc1ccc(C(F)(F)F)cc1)CC2,-1%
Cc1ccc2c(n1)N(C)[C@H](CO)CCN(Cc1ccncc1)C2,2%[70.6 µM]
O=C(CN1C(=O)NC2(CCOCC2)C1=O)NCc1ccccc1,3%
CN(Cc1ccccc1C(F)(F)F)C(=O)c1ccc(F)cc1,0%[70.6 µM]
